From PubChem BioAssay
TRPV1 potentiator = enhances activation of the human vanilloid receptor TRPV1; Q8NER1; TRPV1-expressing cells, Fluo-8 calcium influx, capsaicin EC20 potentiation; host cell line not named in the record; control for the full effect not named in the record; potentiation, % at 8.33 µM; 320,000 tested, 0.02% active; AID 540277; active means potentiation above 80%; inconclusive means 30% to 80%; inactive means below 30%; note: 0% is about no effect
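Cells expressing TRPV1 were dye-loaded with Fluo-8 and read kinetically: 10 s baseline, 3 min after compound (agonist portion), then 2 min after EC20 capsaicin (allosteric enhancer portion). Calcium-bound dye fluorescence at 480/520 nm.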
Menin-MLL FL inh = displaces fluorescein MLL peptide from human menin. 290,000 tested, under 10 active. FP activity change, % at 61.4 µM. Fluorescence polarization, fluorescein-MLL peptide displacement from menin; inconclusive = falling polarisation curve, or a change in total fluorescence; inactive = total fluorescence flat and polarisation flat or rising; no compound was filed as active; the % refers to the polarisation; negative = inhibition;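 note: % of control where 0% means no effect; inhibitors lower the polarisation; unlabelled MLL peptide was the positive control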
Sfp inh = inhibitors of Bacillus subtilis Sfp phosphopantetheinyl transferase | Biochemical Sfp PPTase activity, qHTS | Potency, µM, without a hit: max response, negative = inhibition, hits mostly inhibitors | 310,000 tested, 3.5% active | AID 1490; active = well fitted inhibition curve with a large enough effect; inconclusive = small, poorly fitted or top-dose-only effect, or another doubt; inactive = no such curve, though single readings can be large or run the other way;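 note: the enzyme is Sfp with the accession as filed and its product quenches rhodamine fluorescence; potency is the fitted concentration of half-maximal effect; 0% = enzyme reaction without inhibitor and -100% = no enzyme wells; top concentration of the series not given in the record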
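Step 1, compound plus 15 nM Sfp-PPTase, 15 min, room temperature. Step 2, add rhodamine-CoA (5 uM) and BHQ-2-YbbR (12.5 uM). Step 3, read 525/598 nm fluorescence at 0 and 30 min.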
PINK1 expr mod = changes PINK1 expression | Potency, µM (doses to about 76.6 µM), without a hit: at the top dose activation (PINK1 increase), hits mostly activators | AID 624263 | 410,000 tested, 0.2% active | PINK1 immunofluorescence, high-content cytometry, 24 h; active = well fitted activation curve with a large enough effect; inconclusive = small, poorly fitted or top-dose-only effect; inactive = flat fitted curve, though single readings scatter; cell line not stated here;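 note: potency is the fitted concentration of half-maximal effect; % of control where 0% means no effect; nearly all actives have a fitted effect of over 65% in size; a mitochondrial uncoupler was the plate control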
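Cells are seeded, rested 12 hours, then given compound at five concentrations or DMSO for 24 hours. After fixation, blocking and antibody staining, PINK1 amount and mitochondrial localization are scored; CCCP serves as control.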
ClpP mod = qHTS Assay for Activators of ClpP. ATP-dependent Clp protease proteolytic subunit (Bacillus subtilis (strain 168)), P80244. purified B. subtilis ClpP, FRET peptide cleavage, 20 min. Potency, µM (series often up to 57.5 µM), without a hit: top-dose activity change, negative = active. 340,000 tested, 1.9% active. AID 651965, 2013; active = well fitted falling curve with a large enough effect; inconclusive = small, poorly fitted or top-dose-only effect; inactive = no such curve, though single readings can be large or run the other way; note: potency is the fitted concentration of half-maximal effect; the source files actives as falling curves though it sought activators and does not explain the sign; nearly all actives have a fitted effect of over 65% in size; many hits overshoot -100%
Target sequence (P80244 whole entry, looked up): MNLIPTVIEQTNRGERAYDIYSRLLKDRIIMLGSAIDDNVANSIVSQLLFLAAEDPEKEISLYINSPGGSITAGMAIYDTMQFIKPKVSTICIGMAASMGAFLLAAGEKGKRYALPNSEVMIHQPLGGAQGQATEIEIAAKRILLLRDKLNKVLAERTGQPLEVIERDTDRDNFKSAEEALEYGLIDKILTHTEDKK
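FRET quenching reversal measured ClpP activation: 10 microg/mL B. subtilis ClpP at pH 8 with the FRET-FV decapeptide, read at 430 nm after 320 nm excitation. The 20-min minus 0-min signal was scaled between DMSO/no-enzyme wells and ADEP (5.8 microM final).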
TRPML1 blocker = blocks the human TRPML1 channel. TRPML1-inducible cells, Ca2+ dye fluorescence, FDSS; stronger effect = lower value; inhibition of EC80 agonist-evoked calcium signal. AID 624415. activity change, negative = inhibition, % (no concentration beside the values). 390,000 tested, 0.02% active; in the data active means activity change below about -50%; inconclusive means about -30% to -50%; inactive means above about -30%;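 note: stimulus is agonist 54-4 at its EC80 concentration; % is set by controls: 0 for no effect and ±100 for the full control effect; compound concentration not given in the record; the text of the record puts the active cut at -80%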
Target sequence (Q9GZU1 whole entry, looked up): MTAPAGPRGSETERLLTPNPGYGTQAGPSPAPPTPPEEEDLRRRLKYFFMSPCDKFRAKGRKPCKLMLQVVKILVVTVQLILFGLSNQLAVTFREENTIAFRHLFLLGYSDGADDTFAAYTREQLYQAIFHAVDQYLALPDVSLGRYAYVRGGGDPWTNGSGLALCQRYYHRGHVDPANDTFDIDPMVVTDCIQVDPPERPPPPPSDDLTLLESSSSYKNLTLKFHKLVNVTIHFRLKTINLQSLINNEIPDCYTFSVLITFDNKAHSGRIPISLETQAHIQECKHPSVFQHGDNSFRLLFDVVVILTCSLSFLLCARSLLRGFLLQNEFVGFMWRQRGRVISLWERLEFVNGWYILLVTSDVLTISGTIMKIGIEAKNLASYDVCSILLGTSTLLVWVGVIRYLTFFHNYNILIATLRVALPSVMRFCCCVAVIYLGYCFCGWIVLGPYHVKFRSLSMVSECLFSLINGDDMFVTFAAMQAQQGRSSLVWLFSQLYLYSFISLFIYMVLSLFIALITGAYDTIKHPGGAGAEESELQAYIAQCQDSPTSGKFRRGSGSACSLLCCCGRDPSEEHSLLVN
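Tet-induced TRPML1-DL cells loaded with Ca8 no-wash calcium dye were read kinetically on FDSS. Compound addition was followed by EC80 agonist 54-4 (4 uM final); inhibition was read over 110 s.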
TRPML1 ag = human mucolipin-1 channel agonism | TRPML1-expressing cells, Ca2+ dye fluorescence, FDSS; host cell line not named in the record; reference of the full effect not given here | activation, % (concentration not given with the values) | 410,000 tested, 0.12% active; in the data active = activation above about 50%; inconclusive = about 30% to 50%; inactive = below about 30%; note: 0% is about no effect; the text of the record puts the active cut at 80%
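Calcium fluorescence on an FDSS kinetic reader gave the read-out. Tet-induced TRPML1-DL cells were plated overnight, dye-loaded (Ca8 with quencher, 45-90 min, room temperature, dark), then read 110 s after compound addition, and again 110 s after 4uM final 54-4 (EC80).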
Active calls of the source: *; ? = inconclusive; nt = no result given; [ ] = remark or other dose.

SMILES	TRPV1 potentiator	Menin-MLL FL inh	Sfp inh	PINK1 expr mod	ClpP mod	TRPML1 blocker	TRPML1 ag
Cc1ccccc1Cn1c(CN2CCCC(C)C2)nc2c1c(=O)n(C)c(=O)n2C (stereo not drawn)	nt	nt	nt	1.8%	1.9%	26.2	-0.8
COc1cccc(-n2c(SCC(N)=O)nnc2-c2ccco2)c1	2.9	-12.7	16.3%	-1.5%	31.6µM*	51.5	-0.4
CC1CCCC(C)N1C(=O)CSc1nnc(C2CCCCC2)o1 (stereo not drawn)	-1.0	-2.4	-1.6%	0.0%	1.5%	-1.5	-0.3
CC(OC(=O)c1ccc(NC(=O)CC#N)cc1)C(=O)Nc1ccc(S(=O)(=O)N2CCCC2)cc1 (stereo not drawn)	nt	nt	nt	0.5%	0.1%	-5.4	-0.6
O=C1C=CC(=O)C(C2=C3C(=O)N(CCc4ccccc4)CC(=O)N3CCC2)=C1	-7.4	0.4	1µM*	6.2%	2.0%	-7.6	-0.1
COc1ccc(C(=O)OC(C)C(=O)NC(C)CCc2ccccc2)cc1OC (stereo not drawn)	-3.6	3.6	6.4%	1.3%	-5.1%	1.6	-0.2
COc1ccc(-n2c(=S)[nH]c3ccccc32)cc1	0.1	4.7	44.7µM*	-1.2%	-1.8%	-7.6	0.1
CCC(=O)Nc1c(-c2ccccc2)c(=O)c2ccccc2n1C	7.1	2.2	4.6%	-0.5%	?	-0.1	-0.5
Cc1ccc(-c2nc(CS(=O)(=O)CC(=O)NC3CCCCCC3)c(C)o2)cc1	-17.3	-0.7	-3.9%	0.2%	nt	3.9	1.5
O=C(CSc1nc(=O)n2ccccc2n1)N1CCC(Cc2ccccc2)CC1	-6.6	nt	nt	-1.5%	1.9%	12.5	-0.5
CC(C)c1nnc(NC(=O)C2CCCN2S(=O)(=O)c2ccc(Cl)cc2)s1 (stereo not drawn)	-0.9	0.1	-2.3%	-2.5%	2.5%	-1.6	1.4
N#C/C(C(=O)N1CCOCC1)=C1/SC(Cc2ccccc2)C(=O)N1c1ccccc1 (stereo not drawn)	9.0	-0.2	-3.8%	-1.1%	-0.5%	6.1	0.1
O=C(CCc1ccccc1Cl)Nc1cc2c(cc1C(=O)O)OCCCO2	23.2	nt	nt	0.7%	2.5%	-0.5	-0.5
CCOc1ccc(NC(=S)NNC(=O)c2cc(Br)ccc2Cl)cc1	3.3	-3.2	-11.1%	2.4%	nt	18.8	0.7
COC(=O)c1ccccc1NS(=O)(=O)c1ccc(O)c(C(=O)O)c1	-2.9	-0.2	19.6%	-0.3%[38.3 µM]	-4.3%	-1.7	-0.6
CCc1ccccc1OCC(=O)NNCC(=O)Nc1cccc(C#N)c1	2.0	nt	nt	0.5%	-0.1%	7.6	-1.1
Cc1nc2c(c3c1[nH]c1ccccc13)C(=O)CC(C)(C)C2	-23.4	4.2	5.7%	-1.9%	-20.4%	-8.7	0.7
O=C(NCc1cccc(Cl)c1)c1ccc(-c2ccc(F)c(F)c2)c2ccoc12	nt	nt	nt	0.6%	15.8µM*	43.6	5.5
CCC(C)N(C(=O)CSc1ccc(NC(C)=O)cc1)C1CCS(=O)(=O)C1 (stereo not drawn)	-0.5	2.6	2.7%	-1.1%	nt	0.2	-0.1
COC(=O)c1cccc(S(=O)(=O)N(Cc2ccco2)Cc2cc3cc(OC)ccc3[nH]c2=O)c1	-0.3	7.7	-15.7%	1.7%[38.3 µM]	-25.1%	6.7	0.1
C[C@@H]1Cc2[nH][nH]c(=O)c2[C@H](C)O1	nt	nt	nt	-0.4%	2.2%	nt	-0.8
CC(C)(C)c1cc(/C=N/NC(=O)C[n+]2ccccc2)cc(C(C)(C)C)c1O	-6.3	8.5	7.9%	1.6%	1.5%	-1.3	0.1
CCN(CCC(=O)O)c1ccccc1	-13.0	1.2	-20.2%	0.3%	-3.5%	4.2	0.2
COc1ccc(CCNC(=O)c2noc(C)c2[N+](=O)[O-])cc1OC	11.0	0.6	4.8%	-0.9%	0.2%	4.8	-0.8
COc1ccc(C(C)(O)c2nc(-c3cncnc3)cs2)cc1 (stereo not drawn)	nt	nt	nt	0.8%	-0.4%	nt	-0.8
O=C(CCCl)Nc1nnc(SCC(=O)NC2CCCC2)s1	1.0	0.2	19.2%	3.6%	nt	24.8	-0.6
Cc1ccc(Cn2cc(S(=O)(=O)c3ccc(Cl)cc3)c(=O)c3cc4c(cc32)OCO4)cc1	nt	nt	nt	3.6%	-12.3%	-11.7	-0.5
CCCCCCCCC[n+]1cccc2c3ccccc3ccc21	3.7	-0.3	-9.3%	?	?	29.2	2.7
CC(=O)c1cc(O)c2ccccc2c1O	16.0	?	44.7µM*	0.8%	1.9%	-0.2	1.0
O=S1(=O)CCC(NC(=S)NC2CCS(=O)(=O)C2)C1 (stereo not drawn)	?	4.7	4.9%	-1.4%	0.8%	1.3	-0.3
O=C(c1ccc2c(=O)n3c(nc2c1)CCCCC3)N1CCN(c2cccc(Cl)c2)CC1	7.9	0.4	7.2%	1.4%	0.2%	5.4	1.8
CSc1ccc(CN(C)C(=O)CCNS(=O)(=O)c2ccc(C)c(C)c2)cc1	-3.5	nt	nt	-1.4%	-23.0%	18.9	2.1
CCCn1c(SCC(=O)NC(C)C23CC4CC(CC(C4)C2)C3)n[nH]c1=O (stereo not drawn)	-5.3	1.7	26.7%	2.4%	-3.5%	10.8	-0.4
O=C(Nc1ccccc1C(=O)NCC1CCCO1)c1ccc(Cl)cc1 (stereo not drawn)	1.8	0.5	3.0%	1.9%	-0.2%	16.8	-0.4
Cc1nn(C)cc1C(C(=O)NC1CCCCC1)N(CCc1ccccc1)C(=O)c1cnccn1 (stereo not drawn)	6.5	-0.1	10.2%	2.1%	2.7%	-23.3	0.7
Cc1nnc(N2C(=O)C(O)=C(C(=O)c3ccco3)C2c2ccc(C(C)C)cc2)s1 (stereo not drawn)	-5.3	?	56.2µM*	2.3%	0.5%	-21.1	2.1
NS(=O)(=O)c1ccc(NC(=S)N2CCC(Cc3ccccc3)CC2)cc1	-14.9	11.3	22.4µM*	-0.5%	-2.3%	2.7	-1.6
O=C(CCC1CCCCC1)Nc1ccccc1C(=O)N1CCOCC1	7.1	3.1	7.0%	1.5%	nt	0.7	-0.3
CCOC(=O)N1CCC(NC(=O)c2ccc(Cl)cc2)CC1	23.7	0.7	18.9%	0.7%	0.9%	0.2	-0.9
COc1cccc(-c2nc(NCc3ccccc3)c3ccccc3n2)c1	nt	1.5	?	2.2%	nt	nt	nt
COC(=O)C1CCN(C(=O)COC(=O)CSc2ccc(C(N)=O)cc2[N+](=O)[O-])CC1	-9.9	nt	nt	-0.4%	-0.7%	-5.4	-0.5
COc1cc2[nH]c3c(N4CCC(C(N)=O)CC4)ncnc3c2cc1OC	5.7	7.0	9.1%	nt	nt	nt	nt
CC(C)CNC(=O)CSc1ccc(S(=O)(=O)N2CCN(C)CC2)cn1	-14.0	nt	nt	0.4%	-0.3%	-7.6	-0.8
Cc1ccc(N2C(=O)CC(N3CCN(c4ccc(F)cc4)CC3)C2=O)c(C)c1 (stereo not drawn)	3.2	1.6	17.7%	1.0%	nt	-3.0	0.2
COc1ccc(C(NC(=O)C2CCN(CCOc3ccc(Cl)cc3Cl)CC2)c2cccs2)cc1 (stereo not drawn)	nt	nt	nt	-1.0%	-3.1%	11.4	0.6

Limited to Sfp inh (two entries from above):
canonical_smiles	Sfp inh
O=C(Nc1ccccc1C(=O)NCC1CCCO1)c1ccc(Cl)cc1 (stereo not drawn)	3.0%
Cc1nn(C)cc1C(C(=O)NC1CCCCC1)N(CCc1ccccc1)C(=O)c1cnccn1 (stereo not drawn)	10.2%

(list continues)
SMILES	TRPV1 potentiator	Menin-MLL FL inh	Sfp inh	PINK1 expr mod	ClpP mod	TRPML1 blocker	TRPML1 ag
O=C(COc1cccc(Br)c1)N/N=C1\CCSC1	8.1	3.4	11.2%	-0.2%	22.4µM*	13.2	0.3
Cc1oc2c(c1C(=O)Nc1cccc3ccccc13)CCCC2	-11.4	8.9	15.4%	3.4%	0.5%	9.3	0.4
CCOc1ccccc1C=C1SC(=S)N(CC)C1=O	nt	nt	nt	8.7%	nt	10.8	1.6
Cc1ccc(C)c(OCc2nnc(NC(=O)c3ccco3)s2)c1	15.4	1.6	8.2%	-0.5%	-5.2%	12.8	-0.6
Cc1nn(C2CCCO2)c(=O)nc1N (stereo not drawn)	-0.4	-4.1	6.9%	nt	nt	nt	nt
O=C(O)Cn1nc(N2CCN(c3ccccc3)CC2)ccc1=O	nt	nt	nt	1.5%	1.1%	-13.4	-0.5
CCOC(=O)C(C)Oc1ccc2c(CC)cc(=O)oc2c1C (stereo not drawn)	-1.4	3.3	13.6%	-2.7%	17.8µM*	10.2	1.8
Cc1cc(C)cc(C(O)c2ncc(-c3ccc(F)cc3)[nH]2)c1 (stereo not drawn)	nt	nt	nt	0.6%	0.1%	nt	-1.2
Cc1ccc(NC(=O)Cn2c(-c3ccc4c(c3)OCO4)cn(-c3ccccc3)c2=O)cc1C	nt	nt	nt	2.3%	28.2µM*	4.4	0.4
Cn1c(CCNC(=O)c2ccccc2F)nnc1SCC(=O)Nc1ccccc1F	0.7	-1.8	-0.3%	2.6%	nt	-18.0	-0.4
CC(C)c1nn2c(=O)cc(COC(=O)c3cccc(NC(=O)c4cccs4)c3)nc2s1	nt	nt	nt	1.0%	1.6%	-15.8	3.5
N#C/C(=C\c1c(N2CCC(C(N)=O)CC2)nc2ccccn2c1=O)C(=O)NCc1ccco1	-4.3	0.9	8.0%	0.1%	25.1µM*	-2.0	0.4
CCCCCCOC(=O)Cc1c(C)nc(-c2ccccc2)[nH]c1=O	-0.9	-0.7	14.0%	-1.6%	-2.5%	20.9	0.9
COc1cccc(-c2nn(-c3ccccc3)cc2CN(C)Cc2ccno2)c1	-11.6	-1.3	0.6%	1.0%	nt	13.4	2.1
CCOc1ccccc1Nc1nc(-c2cccc(Cl)c2)c2c(n1)-c1ccccc1OC2	nt	nt	nt	-0.5%	1.9%	-16.1	0.3
Cc1ccc(/C=N/NC(=O)c2ccccc2OCc2ccc(F)cc2)o1	-2.3	4.8	-26.3%	1.3%	-3.6%	39.7	4.7
Cc1ccc(C(=O)COC(=O)CNC(=O)c2ccccc2)s1	10.3	nt	nt	0.5%	-1.5%	-11.8	-0.8
